Screens from PubChem BioAssay.
Resorufin fluor – compounds fluorescent in resorufin spectral region; Compound fluorescence, resorufin region 547/598 nm, buffer; hits give high values; max dye-equivalent concentration, M; 59,000 compounds, 0.04% hits; active = above 10 nM dye equivalent; inconclusive = 1 to 10 nM; inactive = 1 nM or less; a few of its hits are not listed in these tables; also: highest value over a series up to 38 µM
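Tris 100 mM pH 8.0; compound added, 15 min RT; CCD imager read, ex 547 nm/em 598 nm; signal normalized to resorufin standard curve (six concentrations per plate) as dye-equivalent concentration.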
A647 autofl – compound autofluorescence in A647 spectral region; Compound fluorescence, A647 channel (570/671 nm), Tris buffer; max dye-equivalent concentration, M; 59,000 tested, under 10 active; active means above 1 µM dye equivalent; inconclusive means 0.1 to 1 µM; inactive means 0.1 µM or less;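 also: values scaled relative to a standard on each plate; highest value over a series up to 38 µM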
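Fluorescence read (570 nm ex, 671 nm em) after 15 min RT incubation of compounds in 100 mM Tris buffer, pH 8.0; values expressed as dye-equivalent concentration against a six-point A647 standard series on each plate.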
TSHR ag – activates the human thyroid stimulating hormone receptor; P16473; HEK293-CNG-TSHR cells (CNG channel as cAMP sensor), membrane potential dye, cAMP; Potency, µM (highest dose often 57.1 µM), inactives show at the highest dose activation, actives largely listed as activators; 73,000 compounds, 0.48% hits; AID 926; active = well fitted activation curve of enough size with the parental cells flat; inconclusive = any curve in the parental cells; inactive = parental cells flat and receptor cells flat or falling; also: potency is read from the fitted curve at half-maximal effect; % of control where 0% means no effect; weak receptor curves with flat parental cells got no call and are not listed
Target sequence (P16473 whole entry, looked up): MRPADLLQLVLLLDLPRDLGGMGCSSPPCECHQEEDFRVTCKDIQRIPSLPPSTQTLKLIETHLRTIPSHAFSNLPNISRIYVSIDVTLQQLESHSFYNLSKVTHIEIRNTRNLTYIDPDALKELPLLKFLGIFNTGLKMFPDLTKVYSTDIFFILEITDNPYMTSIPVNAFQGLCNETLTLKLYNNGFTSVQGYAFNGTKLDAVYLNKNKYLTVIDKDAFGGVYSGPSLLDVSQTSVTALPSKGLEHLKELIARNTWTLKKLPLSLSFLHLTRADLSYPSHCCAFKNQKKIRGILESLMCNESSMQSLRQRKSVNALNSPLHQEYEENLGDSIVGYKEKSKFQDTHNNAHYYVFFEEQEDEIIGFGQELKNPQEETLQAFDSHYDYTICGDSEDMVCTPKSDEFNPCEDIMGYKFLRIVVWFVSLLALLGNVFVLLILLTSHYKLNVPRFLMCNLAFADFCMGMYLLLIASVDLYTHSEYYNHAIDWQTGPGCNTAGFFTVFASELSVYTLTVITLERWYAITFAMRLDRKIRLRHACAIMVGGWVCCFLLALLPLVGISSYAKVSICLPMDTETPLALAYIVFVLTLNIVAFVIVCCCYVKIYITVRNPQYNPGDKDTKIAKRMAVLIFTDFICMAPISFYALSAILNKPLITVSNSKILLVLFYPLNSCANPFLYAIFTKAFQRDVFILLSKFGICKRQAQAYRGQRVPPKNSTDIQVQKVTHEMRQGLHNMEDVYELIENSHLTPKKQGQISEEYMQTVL
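cAMP rise detected as CNG-channel membrane depolarization by fluorescent dye (emission 590 nm), 30 min after compound, following 60 min dye loading containing 100 uM RO 20-1724 at room temperature. Cells: TSHR/CNG HEK 293, with parental CNG HEK 293 as control.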
A488 fluor – compound fluoresces in the A488 spectral region | compound autofluorescence, A488 spectral region, dye equivalency; hits give high values | max dye equivalency, M | 59,000 compounds, 0.1% hits | AID 591; active = above 10 nM dye equivalent; inconclusive = 1 to 10 nM; inactive = 1 nM or less; about half of its hits are not listed in these tables;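 also: highest value over a series up to 38 µM; compound alone in buffer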
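Autofluorescence read at ex 480/em 540 nm after 15 min RT in 100 mM Tris pH 8.0; compound signal normalized to A488 standard series on each plate, reported as dye-equivalent concentration at each test concentration.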
AID923 – qHTS Assay for Allosteric/Competitive Inhibitors of Caspase-1: Spectroscopic Profiling in AFC Spectral Region. Potency, µM (highest dose often 57.5 µM), inactives show top-dose fluorescence increase, usual class: activators. 75,000 compounds, 1.1% hits. compound fluorescence, AFC spectral region (405/520 nm); almost no hit is shown here. AID 923, 2007; active = well fitted activation curve with a large enough effect; inconclusive = small, poorly fitted or top-dose-only effect;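 also: potency is read from the fitted curve at half-maximal effect; 0% is about no effect; scaled to a free AFC standard on each plate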
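Compound autofluorescence profiled at 405 nm ex/520 nm em during kinetic caspase 1 run (50 nM enzyme, 5 uM Ac-WEHD-AFC, HEPES pH 7.5, 10 mM DTT). Titration up to 57 uM; baseline from regression intercept, normalized to AFC standard curve.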
The depositor's hits bear a star; i = inactive; ? = inconclusive; nt = no result given; & = joins results of further samples; [ ] = remark or other dose.

SMILES | Resorufin fluor | A647 autofl | TSHR ag | A488 fluor | AID923
CCOC(=O)c1[nH]c2ccc(OC)cc2c1NC(=O)C(C)N1CCC2(CC1)OCCO2 (stereo not given) | i | 1e-09 | -7.5% | i | 0.1%
Cc1coc(C)c1C(=O)CC1(O)C(=O)N(Cc2ccccc2)c2ccccc21 (stereo not given) | i | 2.8e-08 | -3.2% | i | -2.5%
COc1ccc(-c2nc(C#N)c(NCCN(C)C)o2)cc1 | nt | nt | -4.1% | nt | -0.2%
COC(=O)c1ccccc1NC(=O)c1ccc(F)cc1 | nt | nt | ? | nt | -0.4%
O=C(CN1CCCCC1)Nc1ccc(F)c(Cl)c1 | i | 1e-09 | -8.5% | i | -0.6%
O=C(NCc1cccs1)C1CC(=O)N(c2ccccc2)C1 (stereo not given) | i | 9.9e-09 | 2.6% | i | -0.5%
CC(=O)Nc1ccc(S(=O)(=O)Nc2cccc(-c3nc4cc(C)ccc4o3)c2)cc1 | i | 1e-09 | 2.9% | i | 1.0%
COc1ccccc1NC(=O)c1cccc(S(=O)(=O)N2CCOCC2)c1 | nt | nt | -0.7% | nt | -2.5%
COc1ccc(CNC(=O)CN(c2cccc(OC)c2)S(C)(=O)=O)cc1 | i | 1e-09 | -1.6% | i | 0.5%
S=C(S)NCCCn1ccnc1 | i | 2.12e-08 | 3.6%[11.4 µM] | i | -0.4%[11.5 µM]
O=C(O)C1C2C=CC(O2)C1C(=O)Nc1ccc(S(=O)(=O)Nc2ccccc2)cc1 (stereo not given) | i | 1.54e-08 | 12.0% | i | 0.5%
O=C1c2ccccc2NC2CCCCCN12 (stereo not given) | i | 1e-09 | 6.7% | i | 3.8%
CCCOc1ccc(N2C(=O)CC(NCCNc3ccc(S(=O)(=O)CC)cc3)C2=O)cc1 (stereo not given) | i | 7.5e-09 | -15.6% | i | -2.1%
CCN(CC)CCN1C(=O)C(O)=C(C(=O)c2ccco2)C1c1ccccn1 (stereo not given) | i | 1e-09 | nt | i | nt
COc1cc2c(cc1OC)CN(C(=O)C1(c3ccccc3)CC1)CC2 | i | 1e-09 | 16.4% | i | 0.5%
Cc1cc2nc(NC3=NCN(Cc4cccnc4)CN3)nc(C)c2cc1C | i | 8.4e-09 | -2.0% | i | -0.4%
O=C1CCCC(O)=C1C=Nc1ccc(O)cc1 | nt | nt | 3.4% | nt | 4.6%
O=C(COc1ccc(Cl)cc1Cl)Nc1ccccn1 | i | 1e-09 | 4.9% | i | 0.0%
Cc1noc(C)c1-c1ccc2ncnc(NC3CCNCC3)c2c1 | i | 1.64e-08 | 1.4% | i | 2.4%
Cc1ccc(-c2nc(C#N)c(N3CCCCC3)o2)cc1 | nt | nt | 19.7% | nt | -2.3%
CCCCN(C)C(=O)Cn1cnc2sc(C)cc2c1=O | i | 2.5e-09 | 5.5% | i | 0.0%
CO[C@H]1COC(=O)C/C=C\[C@H](C)[C@@H](OC)COC(=O)C/C=C\[C@@H]1C | nt | nt | -1.6%[11.4 µM] | nt | -1.0%[11.5 µM]
CC(C)CNS(=O)(=O)c1ccc(CCC(=O)N2CCN(Cc3ccc4c(c3)OCO4)CC2)cc1 | i | 7e-09 | 1.1% | i | 0.1%
O=C(CSc1nnc(-c2ccc(Cl)s2)o1)N1CCc2ccccc21 | i | 1e-09 | 19.1% | i | -0.8%
CCOc1ccc(-n2c(SCC(=O)Nc3ccc4c(c3)OCCO4)nc3c(c2=O)SCC3)cc1 | i | 1e-09 | -1.4% | i | -0.3%
Cc1coc2cc3oc(=O)c4c(c3cc12)CCC4 | i | 1e-09 | 11.8% | i | -4.7%
O=C(NCCCN1CCN(c2ccccc2F)CC1)C1CCCN(S(=O)(=O)c2cnc[nH]2)C1 (stereo not given) | nt | nt | -10.2% | nt | 1.9%
Cc1cc(NC(=O)CSc2nnc3c(C)cc4cc5c(cc4n23)OCO5)no1 | i | 1e-09 | 3.9% | i | -1.0%
CCCn1c(=O)c(C(=O)Nc2c(C)n(C)n(-c3ccccc3)c2=O)c(O)c2ccccc21 | i | 1e-09 | 8.7% | i | 1.9%
Cn1nccc1C(=O)OCC(=O)Nc1nc(-c2ccccc2)cs1 | i | 3.29e-08 | nt | i | 0.0%
COc1ccc(Cc2nc(-c3ccc(NC(=O)c4cccnc4)cc3)no2)cc1 | i | 5.2e-09 | 9.3% | i | -1.0%
CCOC(=O)c1[nH]c2ccc(OCC)cc2c1NC(=O)CN1CCCC(C)C1 (stereo not given) | i | 1.67e-08 | 22.4% | i | -1.2%
CC(C)(C)c1csc(NC(=O)c2cccs2)n1 | i | 3.1e-09 | nt | i | 0.6%
CCOC(=O)/C=C1\CC(=O)Nc2nonc2N1 | nt | nt | 13.4% | nt | 2.9%
O=C1C2CC=CCC2C(=O)N1c1n[nH]c(Cc2ccccc2)n1 (stereo not given) | i | 1e-09 | nt | i | -1.7%
O=C(O)c1cc2cc(Cc3cccnc3)ccc2o1 | i | 1e-09 | 3.0% | i | 13.2%&-0.6%

Fetched by compound from the list above:
SMILES | Resorufin fluor | A647 autofl | TSHR ag | A488 fluor | AID923
CCCOc1ccc(N2C(=O)CC(NCCNc3ccc(S(=O)(=O)CC)cc3)C2=O)cc1 (stereo not given) | i | 7.5e-09 | -15.6% | i | -2.1%
Cc1noc(C)c1-c1ccc2ncnc(NC3CCNCC3)c2c1 | i | 1.64e-08 | 1.4% | i | 2.4%
Cc1cc2nc(NC3=NCN(Cc4cccnc4)CN3)nc(C)c2cc1C | i | 8.4e-09 | -2.0% | i | -0.4%
O=C(COc1ccc(Cl)cc1Cl)Nc1ccccn1 | i | 1e-09 | 4.9% | i | 0.0%
O=C(O)c1cc2cc(Cc3cccnc3)ccc2o1 | i | 1e-09 | 3.0% | i | 13.2%&-0.6%
O=C(CSc1nnc(-c2ccc(Cl)s2)o1)N1CCc2ccccc21 | i | 1e-09 | 19.1% | i | -0.8%

More structures follow.
SMILES | Resorufin fluor | A647 autofl | TSHR ag | A488 fluor | AID923
CCCCOC(=O)c1ccc(NC(C)=O)cc1 | nt | nt | -0.7% | nt | -0.1%
Cc1nc2c3c(-c4ccccc4)c(-c4ccccc4)oc3ncn2n1 | i | 1e-09 | 6.5% | i | -0.2%
O=S(=O)(NCc1ccccn1)c1cccc2cccnc12 | nt | nt | 3.6% | nt | -0.6%
CCOc1ccc(-c2n[nH]c(C)c2-c2ccccc2OC)c(O)c1 | i | 2.78e-08 | 28.0% | i | 1.1%
COc1ccc(/C=C/N(CCc2ccc(OC)c(OC)c2)C(=O)C(F)(F)F)cc1 | nt | nt | 20.4%[11.4 µM] | nt | -1.2%[11.5 µM]
Brc1c(Br)c(Br)c2n[nH]nc2c1Br | nt | nt | 29.3% | nt | -1.7%&-8.5%
COc1ccc(NC(=O)C2=C(C)NC(=O)NC2c2cccc(OC)c2OC)c(OC)c1 (stereo not given) | nt | nt | 3.9%[11.4 µM] | nt | -2.0%
Cc1ccc(-c2nnc3sc(C4COc5ccccc5O4)nn23)cc1 (stereo not given) | i | 3.6e-09 | ? | i | 1.9%
Cc1cc(C)c2nc(C(F)(F)F)nc(NCCCN3CCCC3=O)c2c1 | i | 7.5e-09 | 2.8% | i | 0.7%
CCCCn1cnc2cc(NCc3ccncc3)ccc21 | i | 1.8e-09 | -8.5% | i | -0.5%
Cc1ccc(-n2c(-c3ccncc3)nnc2-c2cccs2)cc1 | i | 1e-09 | 29.2% | i | 0.9%
C=C(C)CSc1nc(C)c(Cc2ccccc2)c(=O)[nH]1 | i | 4.92e-08 | nt | i | -0.7%
CCOC(=O)Cc1nnc(NC(=O)CSc2nncn2C)s1 | nt | nt | 2.0%[11.4 µM] | nt | 2.9%
CCS(=O)(=O)NCCCc1ccccc1 | i | 1e-09 | 1.7% | i | 0.5%
COC(=O)c1ccc(CSc2nc(N)cc(N)n2)cc1 | i | 4.86e-08 | 19.5% | i | -2.6%
O=C1c2ccccc2NC(c2ccc(Cl)cc2Cl)N1O (stereo not given) | i | 3.3e-09 | -5.8% | i | 0.9%
CC(C)C1N=C2c3ccccc3N=C(SCC#N)N2C1=O (stereo not given) | i | 8.5e-09 | 8.8% | i | 1.8%
C[C@H](CO)NC(=O)[C@H](C)[C@H]1C[C@]1(C)[C@H](NC(=O)OCc1ccccc1)c1ccccc1 | nt | nt | 7.1% | nt | -0.6%
COCCCn1c(-c2ccccc2)nc2ccccc2c1=O | nt | nt | -3.2% | nt | -0.4%
CC(C)NC(=O)N1CC[C@@]2(CCCN(C(=O)Oc3ccccc3)C2)C1 | i | 4.1e-09 | 5.0% | i | 4.2%
O=C(Nc1ccc(F)cc1F)c1cc2ncc(Br)cn2n1 | i | 2.03e-08 | -16.9% | i | -1.7%
c1ccc(-c2ccc(CN3CCN(c4ncccn4)CC3)cc2)cc1 | nt | nt | ? | nt | 1.1%
Cc1cccc(CNc2ccnc(-c3ccccc3C(F)(F)F)n2)c1 | i | 3.41e-08 | ? | i | 1.0%
COc1ccccc1N1CCN(C(=O)c2sc3nc(-c4ccccc4)cn3c2C)CC1 | i | 1e-09 | 28.7% | i | 13.1%
O=C(CCc1ccccc1)Nc1nc2nc(-c3ccccc3)cc(=O)n2[nH]1 | i | 3.21e-08 | -5.8% | i | -2.1%
O=C(NCCN1C(=O)C2C3C=CC(C3)C2C1=O)Nc1ccccc1 (stereo not given) | nt | nt | 1.3% | nt | 2.5%
O=C1c2ccccc2C(=O)N1CC1c2ccccc2CCN1C(=O)N1CCOCC1 (stereo not given) | i | 1.62e-08 | nt | i | nt
Cc1cccc(Cn2cnc3c(nnn3Cc3ccc(Cl)cc3)c2=O)c1 | i | 6.2e-09 | ? | i | -1.4%
C=C1C(=O)O[C@@H]2[C@@H]1CC/C(C)=C\CC[C@@]1(C)O[C@H]21 | i | 4.61e-08&2.31e-08 | 5.5% | i | -3.0%[25.7 µM]
CCOC(=O)CCP(=O)(O)C(O)c1ccc(OC)cc1 (stereo not given) | i | 3.72e-08 | -10.3% | i | 5.3%
Cc1noc(C)c1COC(=O)CCc1ccc(S(=O)(=O)N2CCCCC2)cc1 | i | 4.1e-08 | -3.3% | i | -1.8%
C=C[C@@](C)(O)CC[C@H]1[C@]2(C)CCCC(C)(C)[C@H]2CC[C@]1(C)O | i | 1.01e-08 | nt | i | nt
CC(C)[C@H](NC(=O)C1(c2ccccc2)CCN(C(=O)OC(C)(C)C)CC1)C(=O)O | i | 1.69e-08 | nt | i | 0.9%
Cc1cc(N2CCC(C(=O)NCC3CC3)CC2)nc(-c2ccccc2)n1 | i | 2.39e-08 | 8.7% | i | 0.4%
Fc1ccc(C2CC(c3ccc(F)cc3)n3ncnc3N2)cc1 (stereo not given) | i | 1e-09 | nt | i | 1.9%
COc1ccc(OC[C@@H](CO)OC)cc1 | nt | nt | ? | nt | -4.7%[11.5 µM]
COc1ccc(-n2c(=O)[nH]cc(C(=O)N3CCCc4ccccc43)c2=O)cc1 | i | 1e-09 | -0.7% | i | 1.8%
c1ccc2c(CSCc3cccc4ccccc34)cccc2c1 | i | 2e-09 | 6.9%[11.4 µM] | i | 2.7%[11.5 µM]
Cc1cc(-n2c(C)cc(C(=O)CN3C(=O)NC4(CCCCCC4)C3=O)c2C)no1 | i | 3.37e-08 | 2.2% | i | -0.9%
Cc1sc(NC(=O)CSc2nnc3scc(-c4ccccc4)n23)c(C#N)c1C | i | 2.93e-08 | ? | i | -1.2%
O=c1oc(Cl)c(Cl)c2ccccc12 | i | 2.4e-09 | -1.7% | i | -1.4%
Cc1cccc(CNc2ccnc(-c3ccc(N(C)C)cc3)n2)c1 | i | 1e-09 | 16.8% | i | 3.5%
COC(=O)N1CCC2(CC1)CN(c1ccccn1)C2 | i | 2.12e-08 | -0.6% | i | 2.7%
Cc1ccc(SC(C)C(=O)NCC(C)C)cc1 (stereo not given) | i | 1.15e-08 | 12.4% | i | 7.6%

The list is partial; the hit share may differ from the screen's.
